# Screening data: PubChem BioAssay, several laboratories
# PrP UTR inh: suppresses PrP 5' UTR mRNA reporter expression; hit rate 0.35% among 340,000; inhibition, % (concentration not given with the values); cell-based PrP 5' UTR mRNA reporter, plate reader;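 active means every replicate at 50% or more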;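 further: 0 = median of the neutral control wells; tested in H4 reporter cells; numbers are from one replicate; inactives centre near -14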
# Bead autofluor: flagged as autofluorescent in microsphere protease counterscreen; AID 624483; compound autofluorescence counterscreen, microsphere flow cytometry; stronger effect = higher value; fluorescence intensity (concentration not given with the values); hit rate 3.1% among 360,000;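 active means at least 3 SD above the mean of all compounds, about 16000 in these data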;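 further: 100 nL of 1 mM stock went into each well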
# Mtb hypoxia rep: Mtb hypoxia fluorescent reporter inhibition; M. tuberculosis hypoxia-regulated fluorescent reporter, fluorescence; fluorescence inhibition, % (no concentration beside the values); hit rate 0.1% among 300,000;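 active means 35 to 45% if threefold the growth effect, above 45% if 1.5-fold the growth effect; inactive means the rest, general growth blockers included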;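 further: wells of about 50 µL received 100 nL stock; 0% = vehicle wells and 100% = reference inhibitor wells; whole bacteria with a GFP reporter of the hypoxia response; strong numbers were not always called active; many hits fall short of the cut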
# BJeLR lethal: kills HRASV12-expressing BJeLR cells; BJeLR (HRASV12) viability, CellTiter-Glo ATP luminescence, 48 h; reference of the scale not given here; inhibition, % (test concentration not listed); hit rate 0.17% among 300,000;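 active means replicate mean above 50%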;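 further: 50 nL library stock added to about 25 µL; numbers are from one replicate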
# RN4220 kill: S. aureus RN4220 growth inhibition | OD600, 16 h | inhibition, % (test concentration not listed) | hit rate 0.33% among 330,000 | AID 1259311;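 active means z-score of -3 or lower and OD600 up to 0.18 on both plates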;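 further: plate controls were untreated cells for no effect and reference antibiotic for full effect; stock transfer was 100 nL into about 80 µL; one replicate is shown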
# Sa ugtP lethal: growth inhibition of S. aureus ugtP deletion strain. S. aureus RN4220 ugtP deletion, OD600 growth, 16 h; some inactives read as strong as hits. growth inhibition, % (no concentration beside the values). hit rate 0.54% among 330,000. AID 1259309;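 active means z-score under -3 and OD600 up to 0.15 on both plates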;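 further: plate controls were untreated wells for no effect and antibiotic for full effect; wells of about 80 µL received 100 nL stock; the first replicate is given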
# Mtb hypoxia rep growth: second read-out of Mtb hypoxia rep, no call of its own (marks repeat the call); growth inhibition, %; measured here: M. tuberculosis growth (absorbance);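 0% = vehicle and 100% = reference antibiotic; read after six days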
# Numbers without * were called inactive; · = no result given; & = joins results of further samples.
# Keys – A = PrP UTR inh; B = Bead autofluor; C = Mtb hypoxia rep; D = Mtb hypoxia rep growth; E = BJeLR lethal; F = RN4220 kill; G = Sa ugtP lethal
> O=C(Nc1cccc(O)c1)c1ccccc1[N+](=O)[O-]
  A: -14 | B: 3936 | C: 2 | D: 5 | E: 1 | F: 1.3 | G: 6
> CCC(C(=O)N1CCN(c2cccc(Cl)c2)CC1)c1ccccc1 (configuration not stated)
  A: 1 | B: 4757 | C: · | D: · | E: 2 | F: -3.4 | G: -5
> Cc1nn(-c2ccccc2)c(Cl)c1/C=N/Nc1nncc(=O)[nH]1
  A: -18 | B: 3429 | C: · | D: · | E: -15 | F: · | G: ·
> COc1ccc(C2=CSC3=NCCN23)cc1
  A: -2 | B: 3189 | C: -2 | D: -6 | E: -9 | F: 2.3 | G: 5
> O=C(Nc1ccc(F)cc1)c1cccc(C(=O)Nc2ccc(F)cc2)c1
  A: -9 | B: 3926 | C: 1 | D: -5 | E: -5 | F: 1.5 | G: -4
> Cc1cc(=O)oc2c(C)c(OCC(=O)N3CCC(C(=O)O)(c4ccccc4)CC3)ccc12
  A: -6 | B: 3838 | C: · | D: · | E: 1 | F: 2.8 | G: 4
> COc1ccc(CNC(=O)c2c(O)c3ccccc3n(C)c2=O)cc1
  A: -3 | B: 4113 | C: 5 | D: -4 | E: 7 | F: 5.2 | G: 5
> COc1cccc(Cn2cnc3c(NS(=O)(=O)c4ccc(Cl)cc4)c(C)c(C)cc32)c1
  A: -13 | B: 8982 | C: 7 | D: 5 | E: 7 | F: 11 | G: -1
> O=C(O)CCCC(=O)Nc1ccc(Cl)cc1
  A: 2 | B: 3294 | C: 3 | D: 2 | E: 3 | F: 1.5 | G: -6
> CCC(CCC(=O)Nc1cccc(C(=O)O)c1)C(=O)O (configuration not stated)
  A: -11 | B: 2441 | C: 2 | D: -7 | E: 0 | F: -7.5 | G: 1
> O=C(C[n+]1cc(-c2ccc(F)cc2)n2c1CCC2)Nc1nc(-c2ccc(F)cc2)cs1
  A: -24 | B: 2625 | C: 1 | D: 9 | E: -4 | F: -6.0 | G: -30
> O=C(Nc1cccc2cccnc12)C1CCCC1
  A: -18 | B: 2032 | C: -4 | D: 6 | E: -1 | F: 4.0 | G: -8
> Cc1ccccc1C(=O)NN(C)c1nc2ccccc2nc1C(F)(F)F
  A: -26 | B: 2160 | C: · | D: · | E: 1 | F: 5.3 | G: -2
> Cc1noc(C)c1-c1ccc2ncnc(NC(C)c3ccco3)c2c1 (configuration not stated)
  A: -19 | B: 3314 | C: 10 | D: -2 | E: · | F: 9.3 | G: 2
> Cc1ccccc1OCc1nc2ccc(S(=O)(=O)N3CCOCC3)cc2[nH]1
  A: -60 | B: 22238* | C: -6 | D: -7 | E: · | F: 7.5 | G: -6
> Nc1ncnc2c1ncn2[C@H]1C[C@H](O)[C@@H](COP(=O)(O)O)O1
  A: -25 | B: 5576 | C: · | D: · | E: -8 | F: · | G: ·
> Cc1onc(-c2c(Cl)cccc2Cl)c1C(=O)N1CCN(c2ccccc2)CC1
  A: 5 | B: 2078 | C: 7 | D: 5 | E: -7 | F: 2.9 | G: 10
> COC(=O)c1sccc1NC(=O)Nc1ccc(C(C)=O)cc1
  A: -5 | B: 5555 | C: 10 | D: 1 | E: · | F: 2.5 | G: -5
> COc1ccc(CNC(=O)c2sccc2C)cc1
  A: -37 | B: 5293 | C: 5 | D: 7 | E: -1 | F: 2.4 | G: 3
> CCc1ccccc1NC(=O)CSc1nnc(Cn2nnc3ccccc32)n1C
  A: -16 | B: 8461 | C: 4 | D: -1 | E: -7 | F: 7.1 | G: 11
> Cn1sc(NC(=O)c2ccccc2)nc1=O
  A: -33 | B: 10589 | C: 2 | D: 8 | E: 9 | F: 4.6 | G: -2
> CCCCNC(=S)Nc1ccccc1F
  A: -17 | B: 6550 | C: · | D: · | E: -3 | F: 1.0 | G: 1
> O=C(NCc1ccco1)c1ccccc1O
  A: -27 | B: 3416 | C: 6 | D: 3 | E: -7 | F: 12 | G: 10
> O=C1Nc2ccccc2C1(O)c1ccccc1 (configuration not stated)
  A: 8 | B: 2923 | C: -5 | D: 5 | E: 8 | F: 0.6 | G: 1
> O=C(NCc1ccco1)Nc1ccc(Br)cc1Cl
  A: -69 | B: 11012 | C: 9 | D: 14 | E: 3 | F: 0.4 | G: 2
> CCn1c(=O)n(C)c2c(=O)n(C)c(=O)n(C)c21
  A: 8 | B: 2813 | C: 18 | D: -1 | E: · | F: 1.7 | G: 9
> O=S1(=O)C=CC(Nc2cccc(Cl)c2)C1 (configuration not stated)
  A: -15 | B: 7744 | C: 1 | D: -3 | E: -3 | F: 4.6 | G: -1
> Cc1ccc(NC(=O)c2cnccn2)cc1C
  A: -63 | B: 3942 | C: 13 | D: 1 | E: -21 | F: 2.2 | G: 0
> CC(c1cccs1)N(C(=O)Nc1ccccc1)C1CCCCC1 (configuration not stated)
  A: -3 | B: 21824* | C: 0 | D: 7 | E: 2 | F: -6.0 | G: -5
> N/C(=N\OC(=O)CCC1CCCC1)c1ccc([N+](=O)[O-])cc1
  A: -53 | B: 4528 | C: · | D: · | E: -4 | F: · | G: ·
> CC(=O)N1CCC2(CC1)CC(=O)c1cc(Cl)ccc1O2
  A: -15 | B: 3524 | C: 11 | D: 11 | E: -1 | F: 6.0 | G: 2
> COc1cccc(CC(NC(C)=O)C(=O)NC2CCN(S(=O)(=O)c3ccc(NC(C)=O)cc3)CC2)c1OC (configuration not stated)
  A: -18 | B: 5344 | C: 4 | D: 3 | E: 4 | F: -0.3 | G: 10
> Cn1c(OCc2cccnc2)nc2c1c(=O)n(Cc1ccc(Br)cc1)c(=O)n2C
  A: -9 | B: 9346 | C: 4 | D: 6 | E: -14 | F: -3.9 | G: 1
> CSc1cc(C)n(-c2ccccc2)c(=S)c1C(C)=O
  A: -3 | B: 2912 | C: · | D: · | E: 3 | F: 1.1 | G: 4
> CN(CCC#N)C(=O)COC(=O)c1ccc(CNS(=O)(=O)c2ccc(F)c(Cl)c2)cc1
  A: -10 | B: 2587 | C: -4 | D: 2 | E: 1 | F: 5.7 | G: 8
> COCCCNC(=O)c1ccc(S(=O)(=O)c2ccc(Cl)cc2)c(NC(C)=O)c1
  A: -6 | B: 3793 | C: -1 | D: 2 | E: -4 | F: 1.0 | G: 1
> FC(F)Sc1nc2ccccc2[nH]1
  A: -11 | B: 3812 | C: 2 | D: 4 | E: -1 | F: 3.4 | G: -3
> COc1ccc(C2CCCN2C(=S)Nc2ccccc2C)cc1OC (configuration not stated)
  A: -4 | B: 3526 | C: 5 | D: 2 | E: 8 | F: 3.4 | G: 10
> CCCN(C(=O)COC(=O)CCOc1ccccc1C)c1c(N)n(Cc2ccccc2)c(=O)[nH]c1=O
  A: -16 | B: 5234 | C: 2 | D: 9 | E: -14 | F: -1.6 | G: 5
> CCCn1c(=O)c(/C(N)=N/O)nn(-c2cccc(C(F)(F)F)c2)c1=O
  A: 7 | B: 4479 | C: -8 | D: -5 | E: -3 | F: 1.9 | G: 1
> CCc1ccc(NC(=S)N(Cc2ccccc2)Cc2ccccn2)cc1
  A: -37 | B: 4600 | C: 4 | D: 4 | E: 39 | F: -0.1 | G: 18
> COc1cccc(/C=C/C(=O)OCC(=O)NC2CC2)c1
  A: 3 | B: 5281 | C: 4 | D: -1 | E: · | F: 4.6 | G: 1
> CCn1cc(C(C)NC(=O)COc2ccc(Cl)cc2C)c(C)n1 (configuration not stated)
  A: 6 | B: 23870* | C: 3 | D: 6 | E: -5 | F: 4.3 | G: -9
> COc1ccccc1/C=C/C=Nn1c(-c2ccncc2)n[nH]c1=S
  A: · | B: · | C: 2 | D: -3 | E: · | F: 7.7 | G: -16
> Cc1ccc2cccc(OCc3ccccc3)c2n1
  A: · | B: 3516 | C: 1 | D: 8 | E: 6 | F: 3.3 | G: 4
> CCCn1c(C)cc(/C=C(\C#N)C(=O)O)c1C
  A: -18 | B: 2032 | C: 13 | D: 3 | E: -5 | F: 0.5 | G: 11
> CC(=O)Oc1cc2cccc(OC(C)=O)c(=O)c2c(OC(C)=O)c1OC(C)=O
  A: -19 | B: 5104 | C: · | D: · | E: 2 | F: 20 | G: 3
> O=C(Cn1cc2c(n1)CCCC2)NCCCN1CCN(C2CCCCC2)CC1
  A: -33 | B: 5980 | C: · | D: · | E: -9 | F: -1.0 | G: -1
> O=C1CC(c2ccccc2)Oc2cc(O)cc(O)c21 (configuration not stated)
  A: -17 | B: 5489 | C: 6 | D: 2 | E: 3 | F: 1.7&7.8 | G: -22&-11
> Cc1ccc(C2CC(=O)c3cnn(-c4nc(C)cc(C)n4)c3C2)cc1 (configuration not stated)
  A: -2 | B: 1980 | C: 14 | D: 8 | E: 2 | F: 7.4 | G: -10

# Single values from the entries so far:
# For BJeLR lethal, O=S1(=O)C=CC(Nc2cccc(Cl)c2)C1 (configuration not stated) is listed with -3
# For BJeLR lethal, CC(=O)Oc1cc2cccc(OC(C)=O)c(=O)c2c(OC(C)=O)c1OC(C)=O is listed with 2
# For BJeLR lethal, CC(=O)N1CCC2(CC1)CC(=O)c1cc(Cl)ccc1O2 is listed with -1
# For Mtb hypoxia rep growth, Cc1ccc(C2CC(=O)c3cnn(-c4nc(C)cc(C)n4)c3C2)cc1 (configuration not stated) is listed with 8
# For Mtb hypoxia rep growth, CCn1cc(C(C)NC(=O)COc2ccc(Cl)cc2C)c(C)n1 (configuration not stated) is listed with 6

# (continued)
# Keys – A = PrP UTR inh; B = Bead autofluor; C = Mtb hypoxia rep; D = Mtb hypoxia rep growth; E = BJeLR lethal; F = RN4220 kill; G = Sa ugtP lethal
> CCOC(=O)C1CCCN(C(=O)c2ccc(S(=O)(=O)N3CCCC3)cc2)C1 (configuration not stated)
  A: 5 | B: 6701 | C: 7 | D: 1 | E: -1 | F: 3.1 | G: 0
> CC1(C)Cc2c(sc(NC(=O)c3ccco3)c2C(=O)O)CO1
  A: -20 | B: 12653 | C: -1 | D: -6 | E: -4 | F: 0.6 | G: 2
> CN(C)CCCNc1oc(-c2ccc(Cl)cc2)nc1C#N
  A: -23 | B: 2513 | C: 9 | D: 3 | E: 16 | F: -8.2 | G: 0
> COC(=O)C(=NNc1cccc(C)c1)N1CCCc2ccccc21
  A: · | B: · | C: 6 | D: 0 | E: · | F: -1.2 | G: 27
> CCOc1ccc(C(=O)NC(=S)Nc2ccc(NC(=O)c3ccco3)cc2)cc1[N+](=O)[O-]
  A: -13 | B: 2565 | C: 4 | D: 8 | E: 2 | F: 4.4 | G: -3
> O=C(Cn1nc(C(=O)O)c2ccccc2c1=O)Nc1cc(S(=O)(=O)N2CCOCC2)ccc1Cl
  A: -11 | B: 4236 | C: -3 | D: 2 | E: · | F: 4.7 | G: 1
> O=C(NCc1ccco1)/C(=C/c1ccc(Cl)cc1)NC(=O)c1ccco1
  A: -22 | B: 3671 | C: 7 | D: 3 | E: -6 | F: -2.5 | G: 6
> Cc1ccc(-n2ncc3c(NCc4ccco4)ncnc32)cc1C
  A: -41 | B: 4115 | C: 9 | D: 7 | E: 2 | F: 2.8 | G: 1
> O=C(Cc1ccccc1Cl)N/N=C/c1cccnc1
  A: -45 | B: 5800 | C: · | D: · | E: -9 | F: · | G: ·
> O=C(O)C1CC=CCC1C(=O)NC12CC3CC(CC(C3)C1)C2 (configuration not stated)
  A: -20 | B: 8465 | C: 9 | D: 7 | E: 0 | F: 7.7 | G: -6
> COc1ccc(NC(=O)c2ccccc2NC(=O)c2ccco2)c(OC)c1
  A: -7 | B: 7297 | C: 3 | D: -4 | E: -5 | F: 7.9 | G: 8
> CN1C(=O)c2cccc(N(C)C)c2C1=O
  A: -19 | B: 11342 | C: 6 | D: 4 | E: 2 | F: -0.9 | G: 3
> Cc1ccc(S(=O)(=O)CCNC(=O)Cc2ccc(Cl)cc2)cc1
  A: -13 | B: 3988 | C: -3 | D: 8 | E: -11 | F: -1.6 | G: -5

# Molecules listed so far that contain a cyano group:
# Keys – A = PrP UTR inh; B = Bead autofluor; C = Mtb hypoxia rep; D = Mtb hypoxia rep growth; E = BJeLR lethal; F = RN4220 kill; G = Sa ugtP lethal
> CN(CCC#N)C(=O)COC(=O)c1ccc(CNS(=O)(=O)c2ccc(F)c(Cl)c2)cc1
  A: -10 | B: 2587 | C: -4 | D: 2 | E: 1 | F: 5.7 | G: 8
> CCCn1c(C)cc(/C=C(\C#N)C(=O)O)c1C
  A: -18 | B: 2032 | C: 13 | D: 3 | E: -5 | F: 0.5 | G: 11
> CN(C)CCCNc1oc(-c2ccc(Cl)cc2)nc1C#N
  A: -23 | B: 2513 | C: 9 | D: 3 | E: 16 | F: -8.2 | G: 0

# Compounds as they come. Share with any hit: about 3.9%.
